Mtb growth: Mycobacterium tuberculosis H37Rv growth inhibition, cell based, confirmatory dose response (AID 1949) | 1.6% of 100,000 active | M. tuberculosis H37Rv growth inhibition | one-dose inhibition, % at 10 µg/mL; IC50 in µg/mL for titrated hits | most inactive calls were filed without a number and no value below 0 was filed;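 active = confirmed in a dose series; inconclusive = about 50% or more but not retested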;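 note: bacteria grown 7 days with compound before Alamar blue readout; 0% = untreated bacteria and 100% = reference antibiotic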
* hit, by the source's call; i = inactive; ? = inconclusive. An excerpt; count on the stated rates, not on these rows.

SMILES	Mtb growth
COc1ccccc1C(=O)N1CCN(c2ccccn2)CC1	5%
COc1ccc(Cl)cc1NC(=O)COc1ccc(C(C)(C)c2ccccc2)cc1	13%
O=C(c1ccccc1F)N1CCN=C1c1ccccc1	1%
CC(C)(O)C#Cc1ccc(C(=O)NC2CCCCC2)cc1	i
Cc1ccccc1NC(=O)CSc1nc(SCC(=O)Nc2ccccc2C)nc(N2CCCC2)n1	i
CCCCSc1nc2ccccc2[nH]1	i
CCCN1C(=O)c2ccc(C(=O)Nc3nccs3)cc2C1=O	1%
O=C(c1ccccc1)N1N=C(c2ccccc2O)CC1c1ccccc1 (centres undefined)	3%
CC(=O)NC(c1ccc2c(c1)OCO2)c1ccc2cccnc2c1O (centres undefined)	i
Cc1nc(Nc2nc3ccccc3o2)nc2c1CCC2	24%
COc1cccc(CSc2nc3c(cc2C#N)CCC3)c1	i
Cc1ccc2nsnc2c1S(=O)(=O)NCCc1c(C)[nH]c2ccc(F)cc12	i
COC(=O)Nc1sc2c(c1C(=O)NCc1ccco1)CCCC2	0%
Cn1cnnc1SCC(=O)Nc1ccc2c(c1)OCO2	i
COc1ccccc1N1C(=O)NC(=O)/C(=C/c2ccc(C)o2)C1=O	i
Cc1ccc(Cl)cc1NC(=O)C1C2CCC3C(CCC21)C3(Cl)Cl (centres undefined)	i
CN(C)c1ccnc(NCc2ccccc2)c1C#N	i
O=C(Nc1nnc(COc2ccc(Cl)cc2)s1)C1CCCO1 (centres undefined)	i
CCC(=O)n1nc(-c2ccco2)nc1SCc1ccccc1	11%
Cc1ccc(C)n1-c1cccc(C(=O)OC(C)C)c1	i
COc1ccc2c(c1)c(=O)oc1c(C)c(OCC(=O)NCC3CCCO3)ccc12 (centres undefined)	i
CC1(C)C=C(/C=C/c2ccccc2F)NC(=S)N1	1%
Cc1ccc2cc(CN(Cc3ccco3)C(=O)COc3ccccc3)c(=O)[nH]c2c1	4%
CCC(=O)N1N=C(c2ccc(F)cc2)CC1c1ccc(OC)cc1 (centres undefined)	3%
CCOC(=O)C(Cc1c[nH]c2ccccc12)NC(=O)c1ccccc1Br (centres undefined)	2%
O=C(Nc1ccc(F)cc1)C1CCN(C(=O)c2ccccc2)CC1	i
COc1cc(C(=S)N2CCN(c3ccccc3F)CC2)ccc1O	i
CC(Oc1ccc(-c2ccccc2)cc1)C(=O)N1CCOCC1 (centres undefined)	i
Cn1cccc1-c1nc2ccccc2n1C	i
Brc1c(OCCCCN2CCCC2)ccc2ccccc12	i

Next section; the last eight above are carried over.
SMILES	Mtb growth
Cc1ccc2cc(CN(Cc3ccco3)C(=O)COc3ccccc3)c(=O)[nH]c2c1	4%
CCC(=O)N1N=C(c2ccc(F)cc2)CC1c1ccc(OC)cc1 (centres undefined)	3%
CCOC(=O)C(Cc1c[nH]c2ccccc12)NC(=O)c1ccccc1Br (centres undefined)	2%
O=C(Nc1ccc(F)cc1)C1CCN(C(=O)c2ccccc2)CC1	i
COc1cc(C(=S)N2CCN(c3ccccc3F)CC2)ccc1O	i
CC(Oc1ccc(-c2ccccc2)cc1)C(=O)N1CCOCC1 (centres undefined)	i
Cn1cccc1-c1nc2ccccc2n1C	i
Brc1c(OCCCCN2CCCC2)ccc2ccccc12	i
CCc1ccc(NC(=O)CN(c2cccc(C)c2)S(C)(=O)=O)cc1	i
COc1cc(Cl)c(C)cc1NC(=O)CCCOc1cc(C)ccc1C	47%
CCC(=O)Nc1sccc1C(=O)OC	i
Cc1ccc(C(=O)Nc2ccccc2-c2nc3ccccc3s2)cc1[N+](=O)[O-]	i
CCN1CCN(S(=O)(=O)c2ccc(-c3ccc(C)cc3)cc2)CC1	i
Cc1ccc(NC(=O)COc2ccc(-n3cnnn3)cc2)cc1C	i
Cc1nnc(Nc2ccc(S(N)(=O)=O)cc2)c2ccccc12	0%
CC1=C(C(=O)OCc2ccccc2)C(c2ccc(C)o2)C2=C(CCCC2=O)N1 (centres undefined)	i
O=C(CN(C1CCCCC1)S(=O)(=O)c1ccc(Br)cc1)N1CCN(c2ccccc2)CC1	42%
CCn1ccc(C(=O)Nc2ccc(Cl)cn2)n1	i
CCCCNC(=O)c1c(NC(C)=O)sc2c1CCCC2	i
Cc1nc2cc(NC(=O)NC3CC3)ccc2n1C	i
CCOC(=O)c1ccc(NC(=S)Nc2c(C)nn(CC)c2C)cc1	i
O=C1OCCN(Cc2ccc([N+](=O)[O-])cc2)C1=O	i
C=CCn1c(SCC(=O)Nc2cccc(Cl)c2Cl)nnc1-c1cc(Br)ccc1O	i
COc1cccc(CN2CCC(N3CCC(C)CC3)CC2)c1OC	0%
Cc1ccc(S(=O)(=O)N2CCC(C(=O)NC(C)c3ccccc3)CC2)cc1 (centres undefined)	i
O=C(c1ccccn1)N1CCN(C(=O)c2ccccn2)CC1	1%
CCOc1ccc(-n2c(CCc3ccccc3)nnc2SCC(=O)Nc2ccc(F)cc2)cc1	i
O=C1C2C3c4ccccc4C(c4ccccc43)C2C(=O)N1c1ccccc1I (centres undefined)	i
Cc1cc(C)nc(NS(=O)(=O)c2ccc(NC(=O)c3ccc(C)c(Br)c3)cc2)n1	i
O=C(COc1ccc([N+](=O)[O-])cc1)Nc1ccc2c(c1)OCCO2	i
CCOC(=O)c1c(NC(=S)Nc2ccccc2)sc2c1CCCCC2	i
O=C(Nc1ccccc1-c1ccccc1)c1ccccc1Cl	i
Cc1ccccc1NC(=S)NCCCN(C)C	2%
Cc1cc(C)c(-n2cnnn2)c(C)c1	i
CCCOc1ccc(C2NC(=O)CCC2[N+](=O)[O-])cc1 (centres undefined)	1%
Cc1cc(NC(=O)CSc2ccc(Cl)cc2)c(C)cc1I	0%
Cc1ccc(S(=O)(=O)Nc2ccc(S(=O)(=O)Nc3ccc(C)c(Cl)c3)cc2)cc1	4%
CCC(=O)c1ccc(OC(=O)c2cc3cc(OC)ccc3oc2=O)cc1	i
CCCC(=O)Nc1cccc(NC(=O)CSc2ccc(Cl)cc2)c1	18%
O=C(Nc1cc(Cl)ccc1O)C(c1ccccc1)c1ccccc1	i
O=C(NC(=S)Nc1ccc(CN2CCOCC2)cc1)c1ccc(-c2cc(Cl)ccc2Cl)o1	i
CC(=O)Nc1ccc(OCC(O)Cn2nc(C)c(Br)c2C)cc1 (centres undefined)	i
O=C(CSc1nc2[nH]ncc2c(=O)n1-c1ccccc1)N1CCCCCC1	i
COc1ccc(N(CC(=O)Nc2c(C)n(C)n(-c3ccccc3)c2=O)S(=O)(=O)c2ccc(F)cc2)cc1	i
O=C(CSc1nnnn1-c1ccccc1)Nc1ccc(N2CCOCC2)c(Cl)c1	i
Cc1ccc(NC(=O)CSC2=C(C#N)C(c3ccccc3F)C3=C(CCCC3=O)N2)cc1Cl (centres undefined)	i
C=CCc1cc(OC)ccc1OCCCCN1CCCCC1	i
CCN(C(=O)CCc1ccccc1)c1ccccc1C	i
O=C(O)c1cccc(Nc2nc(Nc3ccccc3)nc(N3CCCC3)n2)c1	23%
O=C(O)CCc1c(-c2ccccc2)cc2ccccn12	i
O=C(NCC1COc2ccccc2O1)C1COc2ccccc2O1 (centres undefined)	i
O=C(Nn1cnnc1)c1cc2c(s1)CCCC2	i
Cc1c(-c2ccccc2)[n+](=O)c(-c2cccs2)c(C)n1[O-]	i
O=C(NCC1CCCO1)c1ccc2c(c1)C1C3CCC(C3)C1C(c1ccccc1)N2 (centres undefined)	5%
CCCCNS(=O)(=O)c1ccc(NC(=O)c2ccccc2Br)cc1	1%
NC(=O)c1c(NC(=O)COc2ccc3ccccc3c2)sc2c1CCCCCC2	i
CCOC(=O)COc1cccc(Cl)c1	i
CCOC(=O)COc1ccccc1C(=O)O	i

Another view of 8 compounds above.
structure,Mtb growth
O=C(O)c1cccc(Nc2nc(Nc3ccccc3)nc(N3CCCC3)n2)c1,23%
O=C(O)CCc1c(-c2ccccc2)cc2ccccn12,i
O=C(NCC1COc2ccccc2O1)C1COc2ccccc2O1 (centres undefined),i
O=C(Nn1cnnc1)c1cc2c(s1)CCCC2,i
Cc1c(-c2ccccc2)[n+](=O)c(-c2cccs2)c(C)n1[O-],i
O=C(NCC1CCCO1)c1ccc2c(c1)C1C3CCC(C3)C1C(c1ccccc1)N2 (centres undefined),5%
CCCCNS(=O)(=O)c1ccc(NC(=O)c2ccccc2Br)cc1,1%
NC(=O)c1c(NC(=O)COc2ccc3ccccc3c2)sc2c1CCCCCC2,i

2 entries from above, with each value named:
O=C(O)c1cccc(Nc2nc(Nc3ccccc3)nc(N3CCCC3)n2)c1
- Mtb growth: 23%
O=C(O)CCc1c(-c2ccccc2)cc2ccccn12
- Mtb growth: i

Next part.
SMILES	Mtb growth
CC(=O)c1ccc(N2CCN(C(=O)c3ccccc3Br)C(C)C2)c(F)c1 (centres undefined)	i
CCOc1ccc(N(CC(=O)Nc2ccccc2-c2ccccc2)S(C)(=O)=O)cc1	i
CCC1CCCCN1S(=O)(=O)c1cc(OC)c(C)cc1C (centres undefined)	0%
CC(C)CCNC(=O)c1ccc2c(c1)C(=O)c1ccccc1-2	i
Cc1ccc(-c2csc(N3C(=O)CNC3=S)n2)cc1	i
Cc1ccccc1C1CC(=O)Nc2c1ccc(C)c2C (centres undefined)	0%
O=C(Nc1ccccn1)C(=O)N1CCCC1	i
Cc1cc(OCC(=O)Nc2ccc(F)cc2)c2c(-c3ccccc3)cc(=O)oc2c1	i
Cc1ccc(C(=O)O)cc1NC(=S)NC(=O)C(c1ccccc1)c1ccccc1	i
COC(=O)C1=C(C)NC(SCC(=O)Nc2ccccc2)=C(C#N)C1c1ccccc1F (centres undefined)	i
COC(=O)Cc1ccc(NC(=S)NCCc2ccc(S(N)(=O)=O)cc2)cc1	i
Oc1ccccc1N1CCN(C(=S)Nc2ccccc2)CC1	0%
O=c1[nH]c(=S)[nH]c2scc(-c3ccc(Br)cc3)c12	4%
O=C(CSCc1ccc(Cl)cc1)Nc1cccc(-c2nc3ccccc3[nH]2)c1	i
COc1ccccc1/C=C1\CCCC2=C1NC(=S)NC2c1ccccc1OC (centres undefined)	3%
C=CCn1c(SCc2ccccc2F)nnc1-c1ccccc1O	i
COC(=O)c1c(NC(=O)C2C3C=CC(C3)C2C(=O)O)sc2c1CCCCC2 (centres undefined)	i
Cc1ccc(F)cc1NC(=O)CSc1ccc(Cl)cc1	16%
COc1ccc(OC)c(NC(=S)N2CCOCC2)c1	43%
CC(=O)Nc1ccc(Nc2ncnc3scc(-c4ccccc4)c23)cc1	i
Cc1sc(NC(=O)c2ccco2)nc1-c1cccc(Cl)c1	i
COCCn1cc(C=O)c2ccccc21	i
O=C(CSc1ccc(Cl)cc1)Nc1ccc(Cl)c(C(F)(F)F)c1	3.2µg/mL*
CC(=O)c1cnc2c(C)c(-c3ccc(C)cc3)nn2c1C	i
Cn1c(SCC(=O)Nc2ccc(Br)cc2Cl)nnc1-c1cccc([N+](=O)[O-])c1	i
O=C(Oc1ccc(-c2ccccc2)cc1)c1cccnc1	17%
COc1cc(C(=O)NC(=S)Nc2ccc(Br)c(Cl)c2)cc(OC)c1OC	i
CC(C)(C)C(=O)CSc1nc2ccccc2c(=O)n1C1CCCCC1	i
CCS(=O)(=O)Nc1ccc(-c2nc3ccc(C)cc3s2)cc1	7%
COc1ccc(NC(=O)C2CCN(S(=O)(=O)c3ccc(Br)cc3)CC2)cc1OC	i
Nc1nnc(SCC(=O)Nc2ccc(S(=O)(=O)Nc3ncccn3)cc2)s1	i
Cc1ccc(C2(c3ccc(C)cc3)CC2C(=O)Nc2ccccc2F)cc1 (centres undefined)	18%
CCc1ccc(-c2nnc(-c3ccc([N+](=O)[O-])cc3)o2)cc1	i
Cc1ccc(S(=O)(=O)N(CC(=O)N2CCCC2)c2ccc(C(C)C)cc2)cc1	1%
O=C(Nc1ccccc1Cl)N1CCN(c2ccccc2)CC1	3%
COC(=O)C1=C(C)N(C)C(C)=C(C(=O)OC)C1c1ccccc1OC	i
O=C(N/C(=N/O)c1ccccc1)Nc1ccc(Cl)cc1	i
Nc1nc(SCC(=O)Nc2ccc(F)cc2)n[nH]1	i
CC(C)n1c(-c2ccccc2Cl)n[nH]c1=S	i
CCn1c(SCC(=O)Nc2ccc(C(C)C)cc2)nnc1C(C)NC(=O)c1ccc(Cl)cc1 (centres undefined)	10%
C=CCn1c(SCC(=O)N2CCCCC2)nc2sc(-c3ccccc3)cc2c1=O	i
Cc1c(Cl)cccc1Nc1nc(N)nc(CN2CCCCC2)n1	22%
CC(=O)C1=C(c2ccccc2)NC(=O)NC1c1ccccc1OCC(=O)Nc1ccccc1 (centres undefined)	i
CCOC(=O)c1ccc(NC(=O)CSc2nc(-c3ccccc3)cc(=O)[nH]2)cc1	18%
Clc1ccc(-n2ncc3c(NCCCN4CCOCC4)ncnc32)cc1	i
O=C(CSCc1ccc(Br)cc1)Nc1ccc(S(=O)(=O)N2CCOCC2)cc1	i
CCOc1cc(C=O)ccc1OCc1ccccc1C	1%
CC(=O)Nc1ccc(NC(=O)CSc2nnc(-c3ccc(N)cc3)n2C)cc1	i
CCCN(CCC)S(=O)(=O)N(C)C	i
CCCC(C)NC(=O)CSc1ccc(C)cc1 (centres undefined)	i
(cont.)
SMILES	Mtb growth
O=c1c2c3c(sc2ncn1-c1ccc(I)cc1)CCCC3	i
S=C(NCc1ccco1)Nc1ccc(Br)cn1	46%
CCCCC(=O)Nc1cccc(NC(=O)c2cccc(C)c2)c1	15%
CC(C(=O)Nc1ccc(-c2ccccc2)cc1)N1C(=O)c2ccccc2C1=O (centres undefined)	i
CC1(C)C=C(N2CCN(C3=CC(C)(C)NC(C)(C)C3)CC2)CC(C)(C)N1	i
C=C(C)Cn1c(/C=C/c2ccc(F)cc2)nc2ccccc21	30%
CN(C)CCOCCOc1c(Cl)cc(Cl)cc1Cl	i
COc1ccccc1OCc1ccc(C(=O)Nc2ccccc2C)cc1	i
O=C(CSCc1c(Cl)cccc1Cl)Nc1ccccc1C(=O)NCc1ccco1	i
CCOc1cc(C=O)ccc1OC(=O)C1CCCCC1	5%
CCOCCCNC(=O)Cc1ccc(Cl)cc1	i
O=C(Cn1c(-c2ccccc2)nnc1-c1ccccc1)c1ccccc1	i
Brc1ccc(NCc2cn3ccccc3n2)cc1	i
CCn1c(SCC(=O)Nc2ccc3c(c2)c2ccccc2n3CC)nnc1-c1cnccn1	?
COc1ccc(NC(=O)c2ccc(Br)s2)cc1OC	i

Screening data as filed in PubChem.
